# PABP polyA inh – PABP poly(A) RNA binding inhibitors, primary screen, biochemical, fluorescence polarization, uHTS; Polyadenylate-binding protein 1 (Homo sapiens), P11940; inhibition, % at 35 µM; 290,000 compounds, 1% hits;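 active = 50% or more with normal probe brightness, or confirmed in later tests; inconclusive = above 50% with abnormal brightness, or retests that disagree; inactive = below 50% or failed in later tests; about a fifth of its hits are not listed in these tables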;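 note: calls also rest on retests at 20 µM and on dose response follow-up; controls were probe without protein and protein plus probe with vehicle; some compounds called inactive have numbers as strong as hits; many hits fall short of the cut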
# Target sequence (P11940 whole entry, looked up): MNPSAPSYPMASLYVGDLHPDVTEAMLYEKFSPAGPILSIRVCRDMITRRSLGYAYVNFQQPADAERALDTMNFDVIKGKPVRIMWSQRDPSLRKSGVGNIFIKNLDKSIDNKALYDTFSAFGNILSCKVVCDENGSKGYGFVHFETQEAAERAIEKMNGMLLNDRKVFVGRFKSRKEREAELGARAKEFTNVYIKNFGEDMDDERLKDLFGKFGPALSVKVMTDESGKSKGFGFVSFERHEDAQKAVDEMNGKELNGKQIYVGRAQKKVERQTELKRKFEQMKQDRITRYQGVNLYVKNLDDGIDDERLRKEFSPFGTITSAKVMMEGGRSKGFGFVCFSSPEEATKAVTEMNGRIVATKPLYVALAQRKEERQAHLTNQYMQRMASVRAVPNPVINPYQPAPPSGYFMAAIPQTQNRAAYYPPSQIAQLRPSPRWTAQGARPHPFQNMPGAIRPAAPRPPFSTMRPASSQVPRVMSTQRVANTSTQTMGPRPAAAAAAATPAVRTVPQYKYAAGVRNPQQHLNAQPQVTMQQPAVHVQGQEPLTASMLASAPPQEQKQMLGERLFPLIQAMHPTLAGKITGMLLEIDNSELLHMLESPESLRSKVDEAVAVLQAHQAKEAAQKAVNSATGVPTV
# CSC inhib – cancer stem cell viability inhibitors, primary screen, luminescence; cancer stem cell-like cells viability; inhibition, % at 7.5 µM; 300,000 compounds, 1.1% hits; AID 2717, 2010;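 active = mean at 75% or more and at least half the replicates too; inconclusive = mean and replicates disagree; tested in HMLE shEcad cells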;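 note: 0% = median of negative and 100% = median of positive control wells; the first replicate is given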
# Rce1 inhib – yeast Rce1p protease inhibitors, primary screen, biochemical, fluorescence, cell-free homogeneous; calls only; AID 2563, 2010; yeast membranes, quenched prenylated peptide cleavage fluorescence; 290,000 compounds, 0.27% hits; CAAX prenyl protease 2 (Saccharomyces cerevisiae (strain ATCC 204508 / S288c)), Q03530;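 active = fall in fluorescence gain of 50% or more versus controls, with final raw signal at or below 3038400; inconclusive = same 50% fall but final raw signal above 3038400; inactive = fall in fluorescence gain under 50%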;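 note: plate controls were neutral control wells for no effect and wells lacking membranes for full effect; tested at 10 µM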
# eIF4H FP inh – human eIF4H binding inhibitors, primary screen, translation initiation inhibitor project, biochemical, uHTS, fluorescence polarization | eIF4H fluorescence polarization binding assay | inhibition, % at 35 µM | 290,000 compounds, 0.94% hits | AID 2012, 2009;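 active = 50% or more with normal probe brightness, or confirmed in later tests; inconclusive = above 50% with abnormal brightness, or retests that disagree; inactive = below 50% or failed in later tests; about a fifth of its hits are not listed in these tables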;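 note: calls also rest on retests at 20 µM and on dose response follow-up; 0% = protein and probe with vehicle and 100% = probe without protein; strong numbers were not always called active; many hits fall short of the cut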
# UUG fidelity – modulators of yeast start codon fidelity, primary screen, whole organism, S. cerevisiae, single point, plate reader; S. cerevisiae UUG-firefly luciferase reporter, luminescence/redox ratio; activity score, % at 18.7 µM; 350,000 compounds, 0.13% hits; AID 602363, 2012;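 active = replicate mean at a twofold rise or more, about +100% in these data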;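 note: firefly luciferase made from a UUG start codon reports start codon fidelity; reporter light over untreated wells divided by growth signal over untreated wells; some hits fall short of that in this replicate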
# Env fusion inh – inhibitors of HIV-1 Env-driven cell-cell fusion, primary screen, HeLa-JRFL effector, CEM21 target cells, luciferase | 360,000 compounds, 1.1% hits | inhibition, % at 12.3 µM;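 active = mean replicate inhibition score of at least 50 and every replicate individually at or above 50; inconclusive = only one of the two criteria met; inactive = mean below 50 and not all replicates reaching 50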;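 note: 0% = plate neutral controls and 100% = maraviroc near 300 nM; one replicate is shown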
# MT1-MMP act inh – blockers of MT1-MMP proenzyme processing, primary screen, HT1080 RFP-PRO-GFP cells, GFP/RFP fluorescence | AID 651647, 2012 | GFP/RFP ratio change, % at 20 µM | 360,000 compounds, 0.061% hits | Matrix metalloproteinase-14 (Homo sapiens), P50281 | GFP/RFP ratio fluorescence, overnight; percent of plate control window, DMSO zero;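 active = GFP/RFP ratio change of at least 30% with cell ATP level not reduced by more than half and red fluorescence within 50% of control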; note: strong numbers were not always called active
#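 Assay system: HT1080 RFP-PRO-GFP cells. Benchmarks: DMSO vehicle wells and RFP-L50D-GFP reporter cell wells. Times: overnight cell settling, then overnight compound exposure, 37 °C, 5% CO2. Compound: 20 µM single dose, 1% DMSO. Read-out basis: GFP/RFP fluorescence ratio.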
# MT1-MMP act inh RFP – recorded beside MT1-MMP act inh, whose call it bears; RFP signal change, %; measured here: RFP expression control read;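 0 = vehicle wells; hits needed this value within 50% of zero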
# * hit, by the source's call; i = inactive; u = inconclusive; x = no result given.
SMILES,PABP polyA inh,CSC inhib,Rce1 inhib,eIF4H FP inh,UUG fidelity,Env fusion inh,MT1-MMP act inh,MT1-MMP act inh RFP
C/C(=N\NC(=O)CCC(=O)O)c1c(-c2ccccc2)c2cc(Br)ccc2[nH]c1=O,-10,-13,i,3,x,-2,-2,0
CCC(C)NC(=O)COC(=O)Cc1sc(N)nc1-c1ccc(C)cc1 (configuration not stated),-2,-20,i,u,x,6,1,10
CSCC[C@H](N)C(=O)N1CCC(C(=O)N[C@H](C(=O)NCc2ccccc2F)C(C)C)CC1,3,1,i,1,-8,x,-6,4
COc1ccc(CCNC(=O)C2CCN(S(=O)(=O)c3ccc(C)cc3)CC2)cc1OC,-5,-2,i,2,21,8,3,-3
CN(C)/C=C1\C(=O)NN=C1c1ccccc1,6,-8,i,-7,0,14,1,5
CNC(=O)c1ccc(OCc2ccccc2)c(OC)c1,-3,-2,x,1,-12,x,-1,5
CN1CC2=Cc3ccccc3OC23Oc2ccccc2C=C3C1,37,54,i,36,-28,x,-27,-6
O=[N+]([O-])c1ccc(N2CCNCC2)cc1Sc1nc2ccccc2[nH]1,-6,4,i,-3,x,x,-3,-3
CCCN(CC(=O)Nc1ccccc1C)C(=O)c1oc2ccc(OCC)cc2c1C,x,0,i,x,-33,14,-5,-3
COc1ccccc1N1CCN(C(=O)NCc2ccc(Cl)cc2)CC1,7,15,i,-6,-3,-15,1,-2
Cc1cc(CNC(=O)Cn2nc(C)c([N+](=O)[O-])c2C)c2ccccc2n1,-14,13,i,9,x,-6,-5,0
Nc1cnn(C2OC(CO)C(O)C2O)c(=O)n1 (configuration not stated),-9,-11,i,-4,-15,-4,2,4
O=C(NC1CC2CCCC(C1)N2C(=O)N1CCCCC1)C1CCCCC1 (configuration not stated),3,x,i,-2,-14,-63,-4,-1
CCn1cc(S(=O)(=O)NCc2ccccc2Br)cn1,-8,-11,i,-6,-10,10,-1,4
COc1ccc(/C=C(/NC(=O)c2ccccc2)C(=O)N2CCC(C)CC2)cc1,-8,x,i,-4,-34,5,3,2
N/C(=N\OC(=O)C12CC3CC(CC(C3)C1)C2)c1ccccn1,4,3,i,-2,-18,-138,-1,-1
CC(=O)NC(c1ccccc1)c1nc(-c2cccnc2)cs1 (configuration not stated),x,x,x,x,-18,8,1,1
COc1ccc(C(C(=O)NCc2ccccc2)N(Cc2cccnc2)C(=O)c2snc(C(N)=O)c2N)cc1OC (configuration not stated),11,-7,i,-5,-10,-1,-3,0
Cc1ccc(S(=O)(=O)N2CCCC2)cc1C(=O)NCCOc1ccccc1,x,-1,x,x,-9,x,0,-3
Cc1cccc(NC(=O)CSc2nc3[nH]ncc3c(=O)[nH]2)c1C,-1,-14,i,-3,x,-15,2,11
O=C(Nc1ccc(Cl)cc1)Nc1nnc(Cc2ccc([N+](=O)[O-])cc2)s1,3,-9,i,17,x,22,0,1
COc1cccc(CC2CC(=O)N(c3ccc4c(C)cc(=O)oc4c3)C2=O)c1 (configuration not stated),15,-4,i,-2,-21,4,3,4
CCOC(=O)N1CCC(N2Cc3cccc(C(=O)Nc4ccc(N(CC)CC)cc4C)c3C2=O)CC1,-1,-4,i,-2,-14,18,-11,-10
CCCCC1=CC2=CC(=O)C(C)(OC(=O)CC)C(=O)C2=CN1CCc1c[nH]c2ccccc12 (configuration not stated),12,-4,i,6,-27,-51,4,9
COc1ccc(C2=CCC3CCCCN3C2)cc1OC (configuration not stated),x,x,x,x,-17,-12,3,-1

# (list continues)
SMILES,PABP polyA inh,CSC inhib,Rce1 inhib,eIF4H FP inh,UUG fidelity,Env fusion inh,MT1-MMP act inh,MT1-MMP act inh RFP
COc1ccc(S(=O)(=O)NC(CC(=O)NCc2ccccc2OC)c2ccco2)cc1 (configuration not stated),0,-9,i,-2,-16,x,-2,1
Cc1oc(-c2cccs2)nc1CN1CCN(C2CCCC2)C(CCO)C1 (configuration not stated),0,3,i,2,21,0,0,3
COc1cccc(-c2ccc(C#N)c(OC(=O)c3ccc(Cl)cc3)n2)c1,8,-4,i,-3,-7,x,-3,0
CCOC(=O)c1c(NC(=O)CN2C(=O)c3ccccc3C2=O)sc(Cc2ccc3c(c2)OCO3)c1C,-8,-3,i,1,9,34,0,2
O=C(COC(=O)CNC(=O)c1ccco1)Nc1ccc(F)cc1,-11,9,i,0,-18,-14,-5,2
Cc1ccc(C(=O)Nc2cccc3cccnc23)cc1Br,x,1,i,x,-5,-27,3,2
Cc1noc(NC(=O)c2ccc(Cl)cc2)c1Cl,2,5,i,-2,x,-17,4,6
CC(C)CNC(=O)CN1C(=O)NC(Cc2c[nH]c3ccccc23)C1=O (configuration not stated),-1,2,i,-1,x,-10,3,8
C/C(N)=C(/C#N)C(=O)CSc1cc(C)c2cc(C)cc(C)c2n1,0,22,i,-10,-14,3,1,-2
CCOc1ncccc1C(=O)Nc1ccc(S(=O)(=O)Nc2nc(C)cc(C)n2)cc1,x,x,x,x,-10,2,2,5
O=C(O)C1CCC1C(=O)Nc1nc(-c2ccc(Cl)s2)cs1 (configuration not stated),5,-3,i,-1,-22,-11,3,3
COCCSc1nnc(NC(=O)C2CCCO2)s1 (configuration not stated),2,-5,i,-1,x,x,5,6
Cc1c(C#N)c2ccccc2n1CC(=O)NCc1cccnc1,-2,-11,i,4,-9,x,5,0
Nc1cc(S(=O)(=O)N2CCOCC2)ccc1Oc1ccc(F)cc1,3,-5,i,3,-4,0,-1,-20
C/C(=N\NC(=O)CSc1nc2ccccc2c(=O)n1-c1ccccc1C)c1cccs1,-7,11,i,-11,x,15,0,-9
COc1ccc(S(=O)(=O)N(C)CC(=O)Nc2ccccc2OC)cc1,-10,2,i,-12,-2,20,2,1
Cn1cccc1/C=C1\SC(=O)N(CC(=O)Nc2ccc(F)cc2)C1=O,2,x,i,2,x,-9,1,3
O=C1C=C(NCc2ccc(Cl)cc2)CC(c2ccco2)C1 (configuration not stated),x,-3,i,x,-10,-17,0,1
COCc1nnc(NC(=O)CCC2CCCCC2)s1,1,6,i,6,-5,-16,0,0
CC(=O)/C=C(\C)Nc1c(C)n(C)n(-c2ccccc2)c1=O,6,6,i,1,x,-8,1,5
CC1(C(=O)NC2CCCCC2)CCC(=O)N1Cc1cccnc1 (configuration not stated),-12,2,x,10,-23,3,2,-3
COc1ccccc1OCCCC(=O)Nc1ccc2c(c1)OCCO2,4,-3,i,-2,-5,-3,1,-1
O=C(Oc1nsnc1N1CCOCC1)N1CCCCC1,x,-18,i,x,-7,x,3,5
Cc1ccc(S(=O)(=O)NCCc2ccncc2)cc1,-9,-8,i,5,-6,1,0,-3
Cc1ccc(C)c(-c2nnc(NC(=O)COc3ccccc3)o2)c1,x,x,i,x,-17,16,4,2

# Going on with the list.
SMILES,PABP polyA inh,CSC inhib,Rce1 inhib,eIF4H FP inh,UUG fidelity,Env fusion inh,MT1-MMP act inh,MT1-MMP act inh RFP
CCOC(=O)N1CCN(c2nc3ccc(C(=O)c4ccccc4)cc3n3cnnc23)CC1,-6,8,i,-11,2,16,-4,-5
CCc1nnc(NC(=O)COC(=O)c2cc(OC)cc(OC)c2)s1,x,4,x,x,x,12,-2,-1
CCCCCCN1C[C@H](O)[C@@H](n2cc(COC(=O)c3ccccc3)nn2)C[C@@H]1c1ccc(Cl)cc1,x,x,x,x,-4,5,1,-6
Cc1ccc(C)c(-n2c(-c3csc(C)c3C)n[nH]c2=S)c1,0,-2,i,3,-20,10,-7,1
CCOC(=O)C1(C)CCN1C(=O)c1ccc(OC)cc1 (configuration not stated),x,x,x,x,-6,11,2,3
CCN(CC(=O)N1CCCCC1)S(=O)(=O)c1ccccc1,-2,-5,i,0,-4,12,3,5
Cc1cc(OCc2cccc(Cl)c2)c(C)cc1CN1CCOCC1,0,53,i,-4,-12,9,-2,-3
Cc1ccc(S(=O)(=O)N2CCCCC2CCNC(=O)C(=O)NCCc2ccco2)cc1 (configuration not stated),x,34,i,x,x,-3,-1,-12
COc1ccc(C(C(=O)NC2CCCCC2)N(CC2CCCO2)C(=O)CNC(=O)c2ccco2)cc1 (configuration not stated),5,11,i,-3,-15,x,-13,-16
CC1Cc2ccccc2N1C(=O)CSc1nnc2sc3ccccc3n12 (configuration not stated),1,-4,i,0,x,-90,4,4
CC1=CC(c2ccccc2)NC(=S)N1 (configuration not stated),-9,-4,i,-8,-16,2,0,0
COCCNC(=O)c1ccc(NC(=O)C2(c3ccccc3)CCCC2)cc1,1,1,i,-3,12,-3,0,-4
COc1ccc(-c2[nH]ncc2CN(C)Cc2c(C)n[nH]c2C)c(OC)c1,-6,-13,i,-2,x,-10,5,5
CCc1ccc(OCC(O)CN2CCCC2)cc1 (configuration not stated),4,3,i,0,-13,0,-1,-3
COc1ccc(-c2cn(-c3ccc(C)cc3)c(=O)n2CC(=O)Nc2ccc(OC)cc2OC)cc1,0,10,i,1,-20,-91,0,0
CC1=Nn2c(nnc2-c2cccs2)SC1,11,18,i,-2,-11,x,-1,0
CC1CCC/C(=N\NC(=O)Nc2ccccc2)C1 (configuration not stated),-3,x,i,-9,-12,5,3,3
CCOc1ccc(Oc2ccc(C(F)(F)F)cc2N)cc1,-14,-8,i,-2,x,21,1,-5
COc1cc2[nH]c(=S)nc(NCc3cccs3)c2cc1OC,7,0,i,-6,x,22,4,-2
O=C(COC(=O)c1ccc(S(=O)(=O)N2CCCC2)cc1)Nc1cccnc1Cl,-6,-18,i,11,x,1,11,8
CC(=O)Nc1ccc(OC(=O)c2cc3cc(Br)ccc3oc2=O)cc1,4,1,i,-12,-10,-23,-8,0
COc1ccc(C)cc1S(=O)(=O)Nc1cccc(-c2ccc(N3CCCCCC3)nn2)c1,-11,-9,i,-11,2,-13,5,-11
COc1ccc(NC(=O)C(NC(=O)Cc2cccs2)c2ccccc2)cc1 (configuration not stated),8,-1,i,-5,2,x,1,0
Brc1ccc2nc(-c3ccco3)c(Cc3ccccc3)n2c1,x,x,x,x,-16,-29,-3,-2
CCOc1ccc(C(C(=O)NC2CCCC2)N(CCCO)C(=O)c2ccc(-c3ccccc3)[nH]2)cc1 (configuration not stated),-2,x,i,4,x,13,-14,-17
CCCc1c(C(=O)N/N=C(\C)c2ccccn2)nnn1-c1nonc1N,x,x,x,x,-14,-58,4,-6

# Screening data: PubChem, several laboratories
